nsP2pro inh = blocks chikungunya virus nsP2 protease peptide cleavage | Potency, µM (highest dose often 24.9 µM), for inactives: at the top dose activity change, negative = inhibition, actives largely listed as inhibitors | FRET peptide cleavage, nsP2pro, fluorescence 1 h | Q8JUX6 | 1.1% of 31,000 active; active means well fitted inhibition curve with a large enough effect; inconclusive means small, poorly fitted or top-dose-only effect; inactive means no such curve, though single readings can be large or run the other way; further: nearly all actives have a fitted effect of over 60% in size; a reference inhibitor and vehicle were the controls
Starred values were filed as active, the others as inactive; i = inactive; ? = inconclusive; & = joins results of further samples; [ ] = remark or other dose. On the % scale 0 is the no-effect control and ±100 the full control effect; potency means the concentration at half of the fitted maximal effect. Some of the compounds tested; the hit share may differ from the screen's.

SMILES	nsP2pro inh
Cc1noc(C)c1[S+](=O)([O-])N1CCn2cc(C(=O)Nc3ccc(Cl)cc3Cl)nc2C1	-1.7%
CCOC(=O)C1CCN(C(c2ccccc2OC)c2c(O)cc(C)n(CCOC)c2=O)CC1 (centres undefined)	?
O=C(C1CC1)N1C[C@@H]2OCC(=O)N(CC3CC3)[C@@H]2C1	-3.2%[39.2 µM]
COCCn1c(SCC(=O)c2c[nH]c3ccccc23)nc2cc(C(=O)NC(C)C)ccc2c1=O	-7.1%
CNC(=O)c1cc(C)nc2onc(C3CCCN([S+](=O)([O-])c4ccc(C)cc4)C3)c12 (centres undefined)	-1.1%
CCCCN(C)S(=O)(=O)c1ccc(C(=O)Nc2ccc(-c3nc4ccc(C)cc4s3)cc2)cc1	-12.5%
CC(=O)OC1CC2C(C)(C)C(=O)C=CC2(C)C2CC(=O)C3=C(CCC3C3=CC(O)OC3=O)C12C (centres undefined)	-15.5%[10 µM]
Cc1ccc(NS(=O)(=O)c2cc3c(cc2N[C@@H](C)CO)NC(=O)CC3)cc1Cl	?
CN1CCN(c2ncnc3c2CN(C2CCCCC2)C(=O)CN3C)CC1	i
Cn1c(=O)oc2cc(S(=O)(=O)N3CCCC(C(=O)NCCc4ccc(Cl)cc4)C3)ccc21 (centres undefined)	-23.4%
Cc1ccc(O)c(NC(=O)c2ccc(Br)c(S(=O)(=O)N3CCCCC3)c2)c1	24.3%
COc1cccc(C(=O)N2CC3(Cc4ccccc4CN3[S+](C)(=O)[O-])C2)c1	4.2%
Nc1ccccc1S(=O)(=O)Nc1cccc2cccnc12	i
Cc1cccc(N2CCN(C(=O)Cn3ncc4c3-c3cc(C)ccc3OC4)CC2C)c1 (centres undefined)	-12.8%
Cc1cccc(-c2noc(C3CC(=O)N(c4ccc5c(c4)OCCO5)C3)n2)c1 (centres undefined)	-7.5%
C[C@H](NC(=O)Cc1cc(F)cc(F)c1)C(=O)N[C@@H]1C(=O)N(C)c2ccccc2-c2ccccc21	?
Cc1ccc(C)c(NC(=O)/C(C#N)=C/c2ccc(C(C)C)cc2)c1	-20.7%
CCCCCCCCCCCCCCCC(=O)OC(C)C	19.6%
COc1ccccc1NC(=O)c1c(NC(=O)Cc2ccccc2)sc2c1CCC(C(C)(C)C)C2 (centres undefined)	-15.8%
CC(NC(=O)Cc1ccc(NC(=O)N2CCCCc3ccccc32)cc1)c1ccccc1 (centres undefined)	-9.9%
COCCOC(=O)C1=C(C)NC2=C(C(=O)CC(c3ccccc3OC)C2)C1c1cccc(O)c1 (centres undefined)	4.5%
CN(C)C/C=C/C(=O)Nc1ccc(C(=O)Nc2cccc(Nc3ncc(Cl)c(-c4c[nH]c5ccccc45)n3)c2)cc1	12.8%
O=C(O)C1NCc2[nH]cnc2C1c1ccccc1 (centres undefined)	i
CCOC(=O)c1ccc(OC(=O)CCCCCN=C(N)N)cc1	-17.0%&-15.4%&36.8%&-6.4%
CCOCC(=O)N1CCC(N2C(=O)C3(CCCCC3)C2c2ccccc2)CC1 (centres undefined)	i
Cn1ncc(N2CCC(CNC(=O)c3cn4cccnc4n3)C2)cc1=O (centres undefined)	0.8%
COc1ccc(C2Nc3ccccc3C(=O)N2Cc2cccc(C(F)(F)F)c2)cc1COc1ccc(NC(C)=O)cc1 (centres undefined)	4.6%
CCc1ccc(-n2c(N3CCN(c4cccc(C)c4C)CC3)nc3ccccc3c2=O)cc1	-15.8%
Cc1ccc(N2CCN(C(=O)NCc3noc4ccccc34)CC2C)cc1 (centres undefined)	-25.0%
COc1cccc(C2=Nn3c(nnc3-c3cccc(OC)c3OC)SC2)c1	3.3%
CCOc1ccc(C(=O)NC2CCN(c3cc(-c4ccc(OC)cc4)[nH]n3)C2)cc1OCC (centres undefined)	i
CCC(=O)NC(c1cccs1)c1cc(Br)c2cccnc2c1O (centres undefined)	i
COCCNC(=O)c1cc(-c2ccc(Cl)nc2)nc2c1cnn2C	-7.9%[39.2 µM]
O=C(Nc1nnc(-c2ccco2)o1)c1ccc(Cl)cc1	-2.6%
Nc1ccc(-n2nc(C(F)(F)F)cc2C(F)(F)F)cc1	-5.3%
O=C(NCc1cccnc1)C1CN(S(=O)(=O)C2CC2)CC12CCCCC2 (centres undefined)	i

Part of the list above in another layout.
Compound,nsP2pro inh
O=C(Nc1nnc(-c2ccco2)o1)c1ccc(Cl)cc1,-2.6%
COCCNC(=O)c1cc(-c2ccc(Cl)nc2)nc2c1cnn2C,-7.9%[39.2 µM]
CCOCC(=O)N1CCC(N2C(=O)C3(CCCCC3)C2c2ccccc2)CC1 (centres undefined),i
Nc1ccc(-n2nc(C(F)(F)F)cc2C(F)(F)F)cc1,-5.3%
COc1ccc(C2Nc3ccccc3C(=O)N2Cc2cccc(C(F)(F)F)c2)cc1COc1ccc(NC(C)=O)cc1 (centres undefined),4.6%

Further records.
SMILES	nsP2pro inh
CC(C)(C(=O)NCC(F)(F)C(F)(F)F)C(=O)N[C@@H]1C(=O)Nc2ccccc2-c2ccccc21	-18.2%&-6.2%
Cc1nn2c(c1-c1ccccc1N1CCCC1)N(C(=O)C1CCOCC1)CCC2	-12.8%[39.2 µM]
CSc1ccc(CN2CCN(C(=O)COc3ccc(C)cc3)CC2)cc1	-8.0%
Cc1nc2c(C(F)(F)F)cccc2nc1-c1ccc(-c2cccc(S(C)(=O)=O)c2)cc1	15.7%
O=C(CC1N=C2c3ccccc3N=C(SCc3ccccc3F)N2C1=O)NCCc1ccccc1 (centres undefined)	-11.0%
CN(C)Cc1cc(C[C@@H]2CC[C@H](O)[C@@H](CNC(=O)N3CCOCC3)O2)no1	-0.5%[39.2 µM]
Cc1ccc(OCc2nc(-c3ccc(C(=O)NCCc4ccc(Cl)cc4)cc3)oc2C)cc1	-7.0%
Oc1ccc2c3c1O[C@H]1[C@@H](O)CC[C@@]4(O)[C@@H](C2)N(CC2CCC2)CC[C@]314	9.0%
CC(C)c1nc2c(cnn2C)c(=O)n1N	-1.1%
Cc1ccc(-c2nc3cc(Cl)ccc3o2)cc1NC(=O)c1cc2ccccc2o1	-2.7%
CCC(=O)N1CCc2cc(Br)cc(S(=O)(=O)CCC(=O)Nc3ccc(C)c(C)c3)c21	-19.7%
O=C(Cn1cc(S(=O)(=O)N2CCN(c3ccccc3F)CC2)c2ccccc2c1=O)Nc1cccc(C(F)(F)F)c1	-7.4%

Part of the list above in another layout.
Structure | nsP2pro inh
Cc1ccc(-c2nc3cc(Cl)ccc3o2)cc1NC(=O)c1cc2ccccc2o1 | -2.7%
CCC(=O)N1CCc2cc(Br)cc(S(=O)(=O)CCC(=O)Nc3ccc(C)c(C)c3)c21 | -19.7%

New compounds follow.
SMILES	nsP2pro inh
COc1cc(O)cc(C)c1C(=O)O[C@H]1[C@@H](OC(C)=O)[C@H](n2ccc(=O)[nH]c2=O)O[C@@H]1CO	-8.7%[10 µM]
C[C@@H]1Cc2c(Cl)cc(C(=O)N[C@@H](Cc3ccccc3)C(=O)O)c(O)c2C(=O)O1	-4.3%
Cc1noc(C)c1[S+](=O)([O-])N1CCn2ncc(C(=O)NCc3ccc(Cl)nc3)c2C1	-1.2%
N#CC1C(=O)N=C(c2cc(Cl)ccc2O)C=C1c1cc(OCc2ccccc2)cc(OCc2ccccc2)c1 (centres undefined)	-15.3%
CCOc1ccc(NS(=O)(=O)c2ccc3[nH]cc(C(=O)NCCc4ccccc4)c(=O)c3c2)cc1	-14.3%
Cc1cnc(N2CC[C@](C)(O)[C@@H](O)C2)nc1N(C)C	i
Cc1nc2c(c(-c3ccc(O)cc3)n1)CN(C(=O)c1ccccc1C)CCC2	i
CC1(C)CC[C@]2(C(=O)O[C@@H]3O[C@H](CO)[C@@H](O)[C@H](O)[C@H]3O)CC[C@]3(C)C(=CCC4[C@@]5(C)C[C@@H](O)[C@H](O)[C@](C)(C(=O)O)C5CC[C@]43C)C2C1O (some centres undefined)	32.7%[activator][10 µM]
CN1CCC2(C1)CN(Cc1ccccc1)c1ccc(C(=O)N3CCOCC3)cc12 (centres undefined)	-31.7%[39.2 µM]
CN(C1CCCCC1)S(=O)(=O)c1ccc(C(=O)Nc2sc3c(c2C(N)=O)CC(C)(C)NC3(C)C)cc1	-0.6%
Cc1ccc(CCNC(=O)c2c(C)nn(-c3ccc(F)cc3)c2-n2cccc2)cc1	-16.6%
O=C(OC1C(OC(=O)c2cccnc2)C(OC(=O)c2cccnc2)C(OC(=O)c2cccnc2)C(OC(=O)c2cccnc2)C1OC(=O)c1cccnc1)c1cccnc1 (centres undefined)	-2.0%[5.1 µM]
CCN(C(=O)CN(C)S(=O)(=O)c1ccc2c(c1)n(C)c(=O)c(=O)n2C)c1cccc(C)c1	-5.7%
CCC(=O)Nc1cccc(-c2nc3cc(C)ccc3o2)c1	2.0%
COc1cc(/C=C/C(=O)OC[C@H]2O[C@@H](OC3CC(C)=C(C(=O)O)C(C)(C)C3)[C@H](O)[C@@H](O)[C@@H]2O)cc(OC)c1O (some centres undefined)	7.7%[10 µM]
CC(=O)Nc1sc2c(c1-c1ccc(N3CCN(C(C)=O)CC3)nc1)CCNC2	i
O=C(Nc1ccc(Cl)c(S(=O)(=O)N2CCOCC2)c1)c1ccccc1	-5.1%
CCCc1nnc(N2C(=O)c3oc4ccc(F)cc4c(=O)c3C2c2ccc(C(=O)OC)cc2)s1 (centres undefined)	-12.3%
CCCN(CCC)C(=O)Cn1c(SCc2cccc(C(F)(F)F)c2)nc2cccnc21	-12.6%
Cc1ccccc1CCNC(=O)c1ccc2c(c1)c(C)c(C)n2Cc1ccccc1	3.6%
Cc1ccn(CC(=O)NCc2cccnc2Oc2ccccc2)n1	-3.0%
O=C(NCc1cccc(F)c1)N1CCC(n2cnnc2C2CC2)C1 (centres undefined)	-6.0%
O=S1(=O)N=C(Oc2ccccc2C(F)(F)F)c2ccccc21	-24.9%
Cc1nnc(-c2cc(-c3ccccc3Oc3ccccc3)ccn2)n1C	i
O=C(Cc1ccc(Cl)cc1)N1CCc2c(nc3cc[nH]n3c2=O)C1	?
c1ccc(CCN2CCNc3cc(NCc4cccnc4)ncc3C2)cc1	i
CCN1CCN(C(=O)c2ccc3nnc(-c4cccnc4)n3c2)CC1	-0.1%[39.2 µM]
C[C@H]1[C@H](O)[C@@H](C)/C=C/C=C/CC/C=C/C=C/C=C/C=C/C(OC2O[C@H](C)[C@@H](O)[C@H](N)[C@@H]2O)CC2O[C@](O)(CC(O)C(O)CCC(O)CC(O)CC(O)CC(=O)O[C@H]1C)CC(O)C2C(=O)O (some centres undefined)	-38.7%
CCOc1ccc(C(=O)Nc2ccc3nc(SCC(=O)N4CCCC4)sc3c2)cc1	-11.2%
NC1=NC(=O)N2CC12 (centres undefined)	-14.3%[39.2 µM]
Cc1ccc(Cn2cccc(C(=O)Nc3ccc(C)c(Cl)c3)c2=O)cc1	-19.4%
Cc1cc(N[S+](=O)([O-])c2ccc(NC(=O)Cc3ccc(Cl)c([N+](=O)[O-])c3)cc2)no1	i
O=C(O)c1ccccc1C(c1ccc(O)cc1)c1ccc(O)cc1	-10.1%
COC(=O)N1CCC2(C1)N=C(c1ccncc1)C(=O)N2 (centres undefined)	?
O=C(O)c1ccc(-c2noc(-c3ccccc3F)n2)cc1	1.2%
OCc1cccc(-c2noc(-c3ccccc3F)n2)c1	-9.6%
COCCn1c(C)cnc1C1CCN(S(=O)(=O)c2ccc(C#N)cc2)C1 (centres undefined)	-1.7%
CCCCCCCCCCCCCCCC(=O)OCCC1CCN(CCCN2c3ccccc3Sc3ccc(S(=O)(=O)N(C)C)cc32)CC1	-1.5%
COc1ccc(CC(=O)Nc2ccc3n(c2=O)C[C@H]2C[C@@H]3CN(C(=O)c3ccc(-c4ccccc4)cc3)C2)cc1	?
CN(C(=O)/C=C/c1ccoc1)[C@@H]1CC[C@@]2(O)[C@H]3Cc4ccc(O)c5c4[C@@]2(CCN3CC2CC2)[C@H]1O5	-6.1%
CC(=O)Oc1ccc(C(c2ccc(OC(C)=O)cc2)c2ccccn2)cc1	3.9%
CCn1cc(C(=O)O)c(=O)c2ccc(C)nc21	-1.3%
COc1ccccc1CNC(=O)C1CCN(C2=NS(=O)(=O)C(c3ccc(C)c(C)c3)=C2C)CC1	-11.2%
COc1ccc(Cn2ccnc2SCC(=O)NC2CCCC2)cc1	?
Cc1nc(C)c(C(=O)N2CCc3onc(-c4cccc(F)c4)c3C2)s1	?
COc1ccc(S(=O)(=O)c2cc3cc(OC)ccc3oc2=O)cc1	-19.9%
COc1cc(C)c(-c2nc(CN3CCOC(CCN)C3)c(C)o2)cc1C (centres undefined)	-0.3%
C[C@H](N)[C@H](O)c1ccc(O)c(O)c1	?

The closing 4 records of the section before are carried over, then new ones follow:
SMILES	nsP2pro inh
Cc1nc(C)c(C(=O)N2CCc3onc(-c4cccc(F)c4)c3C2)s1	?
COc1ccc(S(=O)(=O)c2cc3cc(OC)ccc3oc2=O)cc1	-19.9%
COc1cc(C)c(-c2nc(CN3CCOC(CCN)C3)c(C)o2)cc1C (centres undefined)	-0.3%
C[C@H](N)[C@H](O)c1ccc(O)c(O)c1	?
Cc1cccc(NC(=O)C2CCCN(S(=O)(=O)c3ccc4c(c3)oc(=O)n4C)C2)c1 (centres undefined)	-22.4%
COc1ccc(CNC(=O)C2CCC(CNS(=O)(=O)c3ccc4c(c3)CCCC(=O)N4)CC2)cc1 (centres undefined)	-9.7%
O=C1CCN(C(=O)Nc2ccccc2F)CCCC(C(=O)NCc2ccncc2)CCN1 (centres undefined)	2.8%
CCOC(=O)c1ccc(NC(=O)CSc2nc(C)c(Cc3ccccc3)c(=O)[nH]2)cc1	-21.4%
Cc1cc(C)cc(OCC(=O)Nc2nc3c(s2)CC(C(C)(C)C)CC3)c1 (centres undefined)	12.6%

Source: PubChem (National Center for Advancing Translational Sciences (NCATS))
